Compound activity (PubChem)
LANA-nucl inh: LANA-nucleosome interaction inhibition | 0.3% of 51,000 active | z-score (concentration not given with the values) | FITC-LANA1-23 / chicken nucleosome fluorescence polarization; active compounds read low | AID 720717;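 active means both repeat wells score below -2 in polarization z-score versus plate sample wells, excluding overly bright wells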;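 further: 100 nL library stock added to about 30 µL; numbers are from one replicate; some results filed as inactive read as strong as hits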
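Assay system: purified chicken nucleosomes with FITC-labelled LANA N-terminal peptide (1-23) / Probe or stimulus: 50 nM FITC-LANA1-23 probe / Compound dosing: pin-transferred compound, 100 nL / Times: compound with peptide–nucleosome mix 10–45 min at room temperature / Technique: fluorescence polarization, 480 nm excitation, 535 nm parallel and perpendicular emission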
BasE inh: BasE siderophore biosynthesis inhibition; purified BasE, fluorescence polarization binding displacement; inhibition, % (concentration not given with the values); 0.1% of 84,000 active; AID 485350;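 active means both replicates above 25% with normal brightness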;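 further: 0% = negative plate control signal and 100% = positive plate control signal; stock transfer was 100 nL into about 30 µL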
Active calls of the source: *; nt = not tested or not shown.

Below each SMILES – LANA-nucl inh, BasE inh
> CC(C)NS(=O)(=O)c1ccc(NC(=O)C(C)OC(=O)c2ccc(CO)cc2)cc1 (configuration not stated)
  nt, -0.7
> Cc1cc(C(=O)CN(Cc2ccco2)S(=O)(=O)c2ccccc2)c(C)n1C
  nt, -0.5
> CC(C)NC(=O)c1ccccc1NC(=O)c1ccco1
  0.52, 2.0
> CC(C(N)=O)N(c1ccc(Cl)cc1)S(C)(=O)=O (configuration not stated)
  0.122, -0.7
> CCCCNC(=O)c1cnn2c(C(F)F)cc(-c3ccccc3)nc12
  -1.08, 1.8
> CCOC(=O)c1c(S(=O)(=O)N2CCCc3ccccc32)c(C)n(C)c1C
  nt, 1.7
> COC(=O)c1ccc(OCc2ccc(Cl)c(Cl)c2)cc1
  0.408, nt
> COc1ccc(-c2noc(CCC(=O)NCCCN3CCC(Cc4ccccc4)CC3)n2)cc1
  -0.442, -6.5
> Cn1c(SCc2cc(=O)oc3cc(O)c(O)cc23)nc2ccccc21
  nt, 1.5
> CCOC(=O)CC1=NC(=O)CS1
  nt, -0.5
> COc1ccc(/C=C/C=C2/SC(=O)N(CC(=O)N3CCCC3)C2=O)cc1
  -0.247, -0.9
> CCC(C)NC(=O)C1CC(c2ccccc2F)=NO1 (configuration not stated)
  -1.48, -0.4
> CC(N=Cc1cccc(O)c1O)c1ccccc1 (configuration not stated)
  -0.74, 7.8
> CCc1ccc(NC(=S)Nc2ccccc2C(C)C)cc1
  nt, 0.9
> O=C1NC2(CCCC2)C(=O)N1CCSc1ccccc1F
  nt, -0.6
> O=C(Oc1ccc(OC(=O)c2ccncc2)cc1)c1ccncc1
  0.474, -0.3
> Cc1ccc(-c2nc3ncccc3o2)cc1N
  -1.2, -3.6
> Cc1ccc2[nH]c3c(c2c1)CCCC3O (configuration not stated)
  0.0455, 1.9
> CCC(C)(C)c1ccc(CC(C)CN2C[C@@H](C)O[C@@H](C)C2)cc1 (some centres not stated)
  -0.18, nt
> COc1ccc2oc(C(=O)N(C)Cc3ccc(Br)s3)c(C)c2c1
  nt, 2.1

Copied from the list:
BasE inh, CCOC(=O)CC1=NC(=O)CS1 reads -0.5
LANA-nucl inh, CCC(C)(C)c1ccc(CC(C)CN2C[C@@H](C)O[C@@H](C)C2)cc1 (some centres not stated) reads -0.18
BasE inh, Cn1c(SCc2cc(=O)oc3cc(O)c(O)cc23)nc2ccccc21 reads 1.5
LANA-nucl inh, CC(N=Cc1cccc(O)c1O)c1ccccc1 (configuration not stated) reads -0.74
BasE inh, Cc1cc(C(=O)CN(Cc2ccco2)S(=O)(=O)c2ccccc2)c(C)n1C reads -0.5

(next part)
Below each SMILES – LANA-nucl inh, BasE inh
> Cc1ccc(CC/C=N/N=C2\NC(=O)CS2)o1
  2.61, 1.5
> O=C(O)Cc1csc2ccc(Cl)cc12
  nt, 1.7
> CCn1c(=O)c(=O)[nH]c2cc(C(=O)N3CCN(c4ccccc4F)CC3)ccc21
  nt, 3.5
> CC(=O)NC(C(=O)O)C1CCCC1 (configuration not stated)
  nt, 0.8
> CN(C)c1ccc(/C=N/NC(=O)C(O)(c2ccccc2)c2ccccc2)o1
  -0.466, -1.4
> COc1ccc(C(=O)CC(C(=O)c2ccccc2)c2ccccc2)cc1 (configuration not stated)
  nt, 1.0
> CSC1=NSC2=NC(=O)/C(=C\c3cccc4ccccc34)C(=N)N12
  -0.78, 7.3
> O=S(=O)(Nc1cccc(-c2ccc(N3CCCC3)nn2)c1)c1ccccc1
  0.106, 0.9
> O=C1NC2(CCOc3ccccc32)C(=O)N1CCOc1c(Cl)cccc1Cl (configuration not stated)
  nt, -0.8
> O=C(c1cc(-c2csc(-c3ccccn3)n2)c[nH]1)N1CCCC1
  nt, -2.5
> Cc1cc(NC(=O)Cn2c(=O)n(CC(=O)NCCc3ccccc3)c(=O)c3ccccc32)n[nH]1
  0.219, 0.8
> O=S(=O)(c1ccc(NN=C2CCCC2)nc1)N1CCCCC1
  nt, 3.0
> CCC(=O)N(c1nnc(SCC(=O)Nc2c(C)nn(-c3ccccc3)c2C)s1)C1CC1
  nt, 3.1
> NNc1ncccc1C(=O)O
  -0.0375, -1.3
> O=C(O)CCCC(=O)Nc1nc2nccc(-c3ccccc3)n2n1
  0.531, -1.3
> Cc1ccnc(SCc2cc(=O)n3[nH]c(C)nc3n2)n1
  1.69, -2.8
> CC(C)CC(N=Cc1c(O)c2ccccc2oc1=O)C(=O)O (configuration not stated)
  -0.698, 2.9
> O=C(COc1ccccc1F)OCc1cccc(C(F)(F)F)c1
  nt, 0.3
> Cc1cc(/C=N/NC(N)=O)c(C)c(CO)c1
  -0.347, 1.6
> COc1ccc2nccc(C(=O)O)c2c1
  0.293, -3.1
> CCOC(=O)c1ccc(-n2cnnn2)cc1
  0.641, 4.7
> COc1ccc(/C=C2\SC(=O)N(CCC(=O)N3CCN(C)CC3)C2=O)cc1
  0.473, -2.1
> COc1ccc(-n2cnnc2SCC(=O)N(Cc2ccccc2)C(C)C)cc1
  nt, -2.4
> COc1cc(C(C)n2ccnc2)cc(Br)c1O (configuration not stated)
  nt, -2.8
> CC(=O)NC(CC(=O)Nc1nc2ccccc2[nH]1)c1ccccc1 (configuration not stated)
  nt, 11.5
> O=C(CN1C(=O)c2ccccc2S1(=O)=O)NC1=NN(c2ccccc2)C(=O)C1
  -0.645, 2.8
> O=C(c1ccccc1-c1ccccc1)N1CCOCC1
  -1.93, 1.6
> COc1ccc(CCCc2nnc(SCC(=O)Nc3ccccc3)o2)cc1C
  -0.0485, 0.7
> Clc1ccc(-c2cc(C3CCNCC3)[nH]n2)cc1
  -0.451, nt
> O=C(CCN1CCCCC1)c1ccccc1
  -0.241, -2.8
> CN(C)/C=N/NC(=O)c1nc(-c2cccc(-n3cccc3)c2)no1
  -0.399, -0.4
> COc1ccc(NC(=O)c2cncc(NS(=O)(=O)c3ccc(F)cc3)c2)cc1
  -0.488, 0.6
> Cc1ccc2nc(Cn3c(=O)c(N4CCOCC4)nc4ccccc43)cc(=O)n2c1
  nt, 0.6
> Cc1cc(F)ccc1S(=O)(=O)N(CC(=O)N1CCOCC1)CC(=O)N1CCOCC1
  nt, 2.7
> CC(C)CNC(=O)c1cccc(NC(=O)C(C)C)c1
  0.87, -1.5
> COC(=O)c1ccc2c(=O)n3nc(NCCc4ccccc4)sc3nc2c1
  0.152, 3.0
> COc1cccc(N2CCN(CC(=O)NCC(F)(F)F)CC2)c1
  nt, 2.6
> Cc1ccccc1C1NC(=S)NC2=C1C(=O)CC(C)(C)C2 (configuration not stated)
  0.146, 0.6
> CC1CN(Cn2[nH]c(=O)ccc2=O)CC(C)O1 (configuration not stated)
  -0.35, -0.7
> CC(=O)Nc1ccc(NC(=O)C(C)OC(=O)c2cc(-c3ccco3)nc3ccccc23)cc1 (configuration not stated)
  nt, -1.6

Looked up one by one from the entries so far:
Below each SMILES – LANA-nucl inh, BasE inh
> COc1cc(C(C)n2ccnc2)cc(Br)c1O (configuration not stated)
  nt, -2.8
> COc1ccc(-n2cnnc2SCC(=O)N(Cc2ccccc2)C(C)C)cc1
  nt, -2.4
> CC(=O)NC(CC(=O)Nc1nc2ccccc2[nH]1)c1ccccc1 (configuration not stated)
  nt, 11.5
> CC(C)CNC(=O)c1cccc(NC(=O)C(C)C)c1
  0.87, -1.5

(continued)
Below each SMILES – LANA-nucl inh, BasE inh
> Cc1ccc(NC(=O)CN2C(=O)c3ccccc3S/C2=C\C#N)cc1C
  nt, -9.6
> CC(=O)NC1C(=O)N(CCc2ccccc2)c2ccc(C)cc21 (configuration not stated)
  -0.482, 0.5
> CCOc1ccc2c(c1)sc(=NC(=O)CCOc1ccccc1)n2C
  nt, 3.5
> O=C(Nc1cccnc1)c1ccc(NC(=O)C2OCCc3ccccc32)cc1 (configuration not stated)
  0.0555, -3.8
> Cn1c(=O)c(=O)n(C)c2c3nsnc3ccc21
  0.923, 0.3
> CC1CCCCN1C(=O)Cn1cc(C#N)c2ccccc21 (configuration not stated)
  -0.37, 0.4
> CCCNC(=O)CCC1CCCCC1
  nt, 0.6
> NNC(=S)NCc1ccc(F)cc1
  nt, 0.0
> Cc1ccc2c(c1)c1c(n2CCC#N)C(=O)CCC1
  -0.786, 2.5
> O=C(CCS(=O)(=O)c1ccccc1)N(Cc1ccccn1)c1nc2ccccc2s1
  0.273, -1.0
> CN(C)Cc1ccc(CSCCNC(=O)Nc2ccccc2)o1
  1.38, -5.3
> CCCNC(=O)CSc1nnc(-c2cccnc2)n1C1CCCCC1
  -0.316, -2.3
> O=C(Nc1ccccc1-c1ccccc1)C1CCCO1 (configuration not stated)
  -0.727, -1.9
> COc1ccc(Cn2c(=O)c(=O)oc3ccccc32)cc1OC
  -1.22, 1.3
> Cc1cccc(C)c1Nc1nc2c(C)cc(C)c(C)c2s1
  nt, 1.9
> Cc1cnc2c(c1SCC(=O)N1CCC(C)CC1)c(=O)n(C)c(=O)n2C
  -2.32, 2.5
> CCOc1ccc(N2C(=O)CC(NCCNC(=O)c3ccc(Cl)cc3)C2=O)cc1 (configuration not stated)
  2.31, -2.6
> CCN1CCn2c1nc(N1CCCCC1)nc2=O
  0.176, -2.2
> CCN(CC)CCCN1C(=O)C(O)=C(C(=O)c2ccc(C)o2)C1c1cccnc1 (configuration not stated)
  -0.518, 1.5
> CC(=O)Nc1ccc(N2CCN(C(=O)c3ccco3)CC2)cc1
  1.89, -4.4
> O=C(O)CC1(CC(=O)Nc2cccc3nonc23)CCCCC1
  0.191, 0.8
> CC(C)(C)c1ccc(C(=O)NCCC(=O)N2CCN(c3ncccn3)CC2)cc1
  nt, 1.2
> CC(C)(C)C1=CC(=Nc2ccccc2N)C=C(C(C)(C)C)C1O (configuration not stated)
  nt, 1.6
> C=CCC(O)(CC=C)C(C)N (configuration not stated)
  0.635, 0.9
> CCCCn1c2nc3ccccc3nc2c2cccc(C)c21
  nt, 1.7
> COC(=O)COc1ccc(NC(=O)c2ccco2)cc1
  2.59, -3.9
> COCCCN1C(=O)c2ccc(C(=O)OCC(=O)Nc3ccc(N(C)C)cc3)cc2C1=O
  nt, 3.2
> COc1ccc(CSc2nc3ccccc3s2)cc1OC
  nt, 2.6
> O=C(O)/C=C/c1ccc(Br)s1
  nt, 2.0
> O=C(NCCCn1ccnc1)c1cccnc1
  0.188, -1.4
> CCOc1cc(N2CCOCC2)c(OCC)cc1NC(=O)Cn1nnc(-c2ccccc2C)n1
  nt, -1.1
> O=C(O)C1CC=CCC1C(=O)Nc1ccc(Cc2ccncc2)cc1 (configuration not stated)
  nt, 6.5
> O=C(c1ccco1)N1CCN(c2ccc(C(F)(F)F)cn2)CC1
  nt, 0.4
> COc1cc(S(=O)(=O)N2CCCC2)c(OC)cc1C
  -0.71, 2.7
> CC(=O)Nc1cc(-n2c(C)nc3ccccc3c2=O)ccc1Cl
  0.609, -0.3
> COc1ccc(CCN=C2SCCN2C(=O)c2ccc(NC(N)=O)cc2)cc1
  nt, -1.7
> CCC(C)NC(=O)C1(O)c2ccccc2NC(=O)N1c1ccccc1 (configuration not stated)
  0.136, 2.5
> O=C(c1noc2c1CCCCC2)N1CCCCC1
  nt, 2.0
> O=C(Nc1ccc(N2CCOCC2)c(Cl)c1)c1cccc(Cl)c1
  0.173, nt
> O=C1c2ccccc2CCC1Sc1nnc(-c2ccncc2)o1 (configuration not stated)
  0.697, 3.6
> CC(C)(C)NS(=O)(=O)c1ccc(Br)cc1
  0.004, -0.2
> Cc1cc(N2CCN(c3ccccn3)CC2)n2ncnc2n1
  -0.431, 3.3
> COc1ccc(NC(=O)c2cnn3c2NC(c2cccc(OC)c2)CC3C(F)(F)F)cc1 (configuration not stated)
  -0.467, 1.4
> O=C(Cn1nnc2ccccc21)NCCSCc1ccco1
  4.29, 0.7
> c1ccc(NNC2=NCCCCC2)nc1
  nt, 1.6
> O=C(Nc1ccc2c(c1)OCO2)C1=NN(C2CCS(=O)(=O)C2)C(=O)CC1 (configuration not stated)
  nt, -1.5
> C=CCOc1cc(C)nc(N2CCOCC2)n1
  nt, 2.7
> Cn1ncc(Br)c1NC(=O)CSc1ccc(Cl)cc1
  nt, -0.2
> CCCNS(=O)(=O)c1cc2c3c(c1)c(C)cc(=O)n3CC2
  -1.48, 0.4
> Brc1ccc(-n2nnnc2/C=C/N2CCCCC2)cc1
  0.631, nt
> CCc1ccc(/C=C2\C(=O)NC(C)=C2C(=O)OC)cc1
  -0.422, 1.8
> Nc1nc(-c2ccccc2)cn1/N=C/c1ccccc1
  nt, 8.9
> CC(Nc1ccccc1CO)C(=O)Nc1cccc(Cl)c1 (configuration not stated)
  nt, 3.3
> CC(C)(C)c1ccc(Oc2ccc(NC(=O)CCCC(=O)O)cc2)cc1
  nt, 2.3
> C=CCn1nnnc1SCC(=O)Nc1ccccc1C(=O)OC
  0.5, 1.5
> Cc1sc2c(c1C)CSC(C(=O)Oc1cccnc1)=C2
  -0.192, 8.0
> Cc1ccc(S(=O)(=O)N(CC(=O)N2CCC(C)CC2)CC(=O)N2CCC(C)CC2)cc1
  -1.08, 1.5
> CC(C)NC(=O)C1c2ccccc2Oc2ccccc21
  1.39, -3.3
> C1CCN2C[C@H]3C[C@@H](CN4CCCC[C@@H]34)[C@H]2C1
  -0.242, 0.3
> Cc1nc(COc2cccc(C(=O)O)c2)cs1
  nt, -3.6
> Cc1cc(=O)[nH]c(NN)n1
  nt, -1.2
> Cc1ccc2c(CC(=O)N3CCN(c4ncccn4)CC3)coc2c1
  nt, -1.9
> CCOC(=O)C1(Cc2ccc(O)cc2)NC(c2ccccc2F)C2C(=O)N(C)C(=O)C21 (configuration not stated)
  0.31, -1.5

Three successive entries already listed, for reference:
Below each SMILES – LANA-nucl inh, BasE inh
> Cc1cc(=O)[nH]c(NN)n1
  nt, -1.2
> Cc1ccc2c(CC(=O)N3CCN(c4ncccn4)CC3)coc2c1
  nt, -1.9
> CCOC(=O)C1(Cc2ccc(O)cc2)NC(c2ccccc2F)C2C(=O)N(C)C(=O)C21 (configuration not stated)
  0.31, -1.5

This is a subset. The share of hits here may be higher or lower than overall.
